# Source: PubChem
# HPGD block – blocks human HPGD enzyme activity | P15428 | hit rate 4.3% among 150,000 | Potency, µM, inactives show at the top dose activity change, negative = inhibition, actives largely listed as inhibitors | purified HPGD, NADH fluorescence kinetic, PGE2 substrate; active = well fitted inhibition curve with a large enough effect (not every such curve was filed as active); inconclusive = small, poorly fitted or top-dose-only effect, or another doubt; inactive = no such curve, though single readings can be large or run the other way;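 note: top concentration of the series not given in the record; plate controls included wells without enzyme; inactives centre near -10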
# Target sequence (P15428 whole entry, looked up): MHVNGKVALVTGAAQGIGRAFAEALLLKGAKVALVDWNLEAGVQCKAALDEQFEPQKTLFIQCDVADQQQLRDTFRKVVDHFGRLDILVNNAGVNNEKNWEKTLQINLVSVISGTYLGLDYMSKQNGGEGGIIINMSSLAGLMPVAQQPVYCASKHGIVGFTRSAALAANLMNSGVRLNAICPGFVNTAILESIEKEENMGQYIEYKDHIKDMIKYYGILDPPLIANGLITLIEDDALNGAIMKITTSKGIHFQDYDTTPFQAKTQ
#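 NADH formation kinetics: reaction with 30 uM PGE2 and 1 mM NAD+ (final), 20 nM enzyme, Tris-HCl pH 8 with Tween 20, after 15 min compound preincubation at room temperature. Fluorescence change, last versus first of five reads.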
# The depositor's hits bear a star; ? = inconclusive. % is set by controls: 0 for no effect and ±100 for the full control effect; potency is the fitted concentration of half-maximal effect.
SMILES,HPGD block
CN(CCC(=O)Nc1ccc(Br)cc1)Cc1ccccc1,-9.2%
CCCSc1nnc(NC(=O)Nc2ccc(F)cc2)s1,-0.2%
CCCCCCCCCCCCCC(=O)O,-13.2%
CC(=O)Nc1cc2c(cc1C(=O)c1ccccc1)OCCO2,-4.7%
Cc1ccc(NC(=O)c2oc3ccc(S(=O)(=O)N4CCOCC4)cc3c2C)cc1C,?
CCOC(=O)C1=C(CSc2nc3ccccc3s2)NC(=O)NC1c1cccc([N+](=O)[O-])c1 (stereo unspecified),-12.1%
COc1ccc(C=O)cc1COc1ccc(F)cc1F,31.6µM*
Cc1nc2ccccc2nc1N1CCC(C)CC1,-10.5%
Cc1cccc(-n2c(CCCN3C(=O)c4ccccc4C3=O)nc3ccccc3c2=O)n1,-2.4%
O=C(O)c1nn2c(C(F)(F)F)cc(-c3cccs3)nc2c1Cl,-22.2%
Cc1ccc(S(=O)(=O)N2CCCC2C(=O)Nc2nc3c(s2)CCCC3)cc1 (stereo unspecified),-2.8%
C[N+](C)(C)c1cc2c(nn1)Nc1ccccc1S2,?

# Sorted by count of non-hydrogen atoms (ascending): some entries from above.
SMILES,HPGD block
CCCCCCCCCCCCCC(=O)O,-13.2%
C[N+](C)(C)c1cc2c(nn1)Nc1ccccc1S2,?
Cc1ccc(S(=O)(=O)N2CCCC2C(=O)Nc2nc3c(s2)CCCC3)cc1 (stereo unspecified),-2.8%

# More structures follow:
SMILES,HPGD block
CC(C)CCN1CN(S(=O)(=O)c2cccs2)c2nc3ccccc3nc21,-7.1%
CCN(Cc1ccccc1)C(=O)CSc1nc(C)cc2c1C(=O)OC2,-22.3%
CCOC(=O)CSC(CC)C(=O)Nc1nnc(C(C)C)s1 (stereo unspecified),-10.6%
CC(C)Nc1nc(SCC(N)=O)nc(N2CCOCC2)n1,-17.5%
O=C(COc1ccccc1)OCc1cc2ccccc2[nH]c1=O,-21.6%
Cc1cc(C)c2[nH]c(=O)c(CN(Cc3nnnn3C3CCCC3)C3CCCCC3)cc2c1,-8.2%
O=C(Cc1ccc(F)cc1)NCCc1ccccc1,-19.5%
CN(C)c1ccc2nc3c(C(=O)O)cc(=O)c(O)c-3oc2c1,-26.4%
COc1ccc(-c2csc(NC(=O)c3ccc(S(=O)(=O)N4CCc5ccccc5C4)cc3)n2)c(OC)c1,-25.4%
O=C(CN1CCN(c2ccccc2)CC1)c1ccc2cc[nH]c2c1,-21.8%
Cc1ccccc1N(CC(=O)Nc1ccccc1C(=O)NCc1ccco1)S(=O)(=O)c1ccccc1,-13.6%
O=C(CSc1nnc(-c2ccccc2F)n1C1CC1)NC(=O)c1cccc([N+](=O)[O-])c1,-0.1%
CCCCn1c(/N=C/c2ccccc2NS(=O)(=O)c2ccc(C)cc2)nc2ccccc21,-27.1%
O=C1c2ccccc2C(=O)C1Cc1cccc2ccccc12,14.1µM*
COc1ccc(NC(=O)CN(C)S(=O)(=O)c2ccccc2)cc1,-6.3%
COc1cc(-n2nc(C)c3c2OC(N)=C(C#N)C3c2ccccc2)c(Cl)c(Br)c1O (stereo unspecified),-17.8%
CC(C)Cn1c(-c2ccco2)csc1=Nc1cccnc1,-14.9%
CCOC(=O)/C(C(=O)Nc1ccc(Br)cc1)=C1/NC(C)(C)Cc2ccccc21,-14.6%
Nc1ccn([C@@H]2O[C@H](CO)[C@@H](OP(=O)(O)O)[C@H]2O)c(=O)n1,-15.1%
COC(=O)/C=C/S(=O)(=O)c1ccc(NC(C)=O)cc1,-4.7%
CCNC(=O)Cn1cnc2c1c(=O)n(C)c(=O)n2C,-1.5%
O=C(Nc1nnc(SCc2ccccc2)s1)c1cccs1,-16.3%
S=C(NCCc1ccccc1)NC1CC1,-7.1%
CC1CC(C)CN(C(=O)c2cc3c(s2)CCC3)C1 (stereo unspecified),12.6µM*
CCCCn1c(CNC(=O)C23CC4CC(CC(C4)C2)C3)nnc1SC(C)CC (stereo unspecified),-5.2%
O=C(Nc1cccc2ccccc12)OC1C=CS(=O)(=O)C1 (stereo unspecified),-11.2%
Cc1ccc(C)c(S(=O)(=O)NCc2ccc(C(=O)NCc3ccccn3)cc2)c1,-10.7%
O=C(O)c1cc(-c2ccccc2)n[nH]1,-16.6%
O=C(C1CCN(CCCc2ccccc2)CC1)N1CCCCC1,-17.7%
COCCN1C(=O)c2ccc(C(=O)NCc3cccnc3)cc2C1=O,-7.2%
COC(=O)c1ccn(-c2nc(-c3ccco3)cc(C(F)(F)F)n2)n1,?
Cc1nc2ccccc2c2oc(C(=O)N3CCN(C(=O)c4ccco4)CC3)cc12,-21.6%
COc1ccc(C(=O)NCC(=O)OCC(=O)NC(=O)NC2CCCCC2)cc1OC,-15.5%
CC(C)Cn1c(=O)c2c(c3ccccc31)OC(C)C(=O)N2 (stereo unspecified),5.4%
CC(C)OC(=O)c1c(NC(=O)CCn2nnc3ccccc32)sc2c1CCCC2,-27.2%
CCn1c2ccccc2c2cc(NC(=O)c3ccc(C)c([N+](=O)[O-])c3)ccc21,-4.5%
COc1cnc(-c2ccccn2)nc1Oc1ccc(Cl)c2ccccc12,6.2%
O=C(/C=C/c1c(Cl)cccc1Cl)n1cccn1,-17.2%
CC1CCN(c2cc(N3CCC(C)CC3)c([N+](=O)[O-])cc2/C=C(\C#N)c2nn(-c3ccccc3)c(N)c2C#N)CC1,-1.5%
COc1ccc(/C=N/OCC(=O)Nn2c(C)nc3ccccc3c2=O)cc1,-12.2%
CC(=O)NC1(C(F)(F)F)NC(=O)N(CC(C)C)C1=O (stereo unspecified),-3.4%
O=CN(Cc1ccco1)C1(C(=O)NC2CCCCC2)CCCCC1,3.1%
Cn1c(SCC(=O)N/N=C/C=C\c2ccccc2[N+](=O)[O-])nc2ccccc21,-3.6%
CCn1cc(/C=N/NC(=O)c2ccc3c(c2)OCO3)cn1,-3.8%
COc1cccc(CNCCN2CCOCC2)c1OC,-5.3%
O=C(NC(CC(=O)N1CCN(c2ccc([N+](=O)[O-])cc2)CC1)c1ccccc1)c1ccccc1Cl (stereo unspecified),-9.7%
CCCCN(CCCNc1ncnc2nc[nH]c12)c1ccccc1,-4.9%
O=C1CC(C(=O)N2CCOCC2)C2(CCCC2)O1 (stereo unspecified),2.8%

# Some of these compounds in order of the HPGD block value, highest first:
SMILES,HPGD block
CC(=O)NC1(C(F)(F)F)NC(=O)N(CC(C)C)C1=O (stereo unspecified),-3.4%
CCn1cc(/C=N/NC(=O)c2ccc3c(c2)OCO3)cn1,-3.8%
CCCCN(CCCNc1ncnc2nc[nH]c12)c1ccccc1,-4.9%
COc1cccc(CNCCN2CCOCC2)c1OC,-5.3%

# Three entries from above, with bars between the fields:
smiles | HPGD block
CCOC(=O)/C(C(=O)Nc1ccc(Br)cc1)=C1/NC(C)(C)Cc2ccccc21 | -14.6%
Nc1ccn([C@@H]2O[C@H](CO)[C@@H](OP(=O)(O)O)[C@H]2O)c(=O)n1 | -15.1%
COC(=O)/C=C/S(=O)(=O)c1ccc(NC(C)=O)cc1 | -4.7%

# Following part
SMILES,HPGD block
O=C(c1cccc(Cl)c1)N1CCC(=O)N([C@H](COCc2cccc(Cl)c2)Cc2ccccc2)CC1,-3.2%
COc1cc(O)c2c(c1)OC(C)(C)CC2=O,-10.6%
CCCn1nc2cc(C(=O)N(CC)c3ccc(OC)cc3)ccc2c1OCC,?
N/C(=N\OC(=O)c1cccc(Br)c1)c1ccc(Br)cc1,-4.3%
Cc1c(S(=O)(=O)N2CCOCC2)c(=O)n(C)c(=O)n1C,-5.5%
COCCNc1ccnc(-c2ccccc2CN(C)C)n1,-2.6%
COc1ccc(-n2nnnc2SCC(=O)Nc2cccc(C)n2)cc1OC,-17.1%
CCN(CC)C(=S)NC(=O)c1ccc(OC)c(Br)c1,-17.1%
COc1cc(NC(=S)NCCC(c2ccccc2)c2ccccc2)cc(OC)c1,-19.8%
C/C(=N/OC(=O)c1ccc(F)cc1)c1ccc(C)cc1,-8.4%
N#CCCn1c(=O)c(-c2cccc(C#N)c2)nc2cnc(Oc3ccccc3)nc21,?
COCc1nnc(NC(=O)c2ccc(S(=O)(=O)N3CCCCCC3)cc2)o1,-3.6%
O=C(/C=C/c1ccc(Cl)cc1)NC(=S)Nc1ccc(NC(=O)c2ccco2)cc1,-11.8%
Cc1ccc(Cl)cc1N1CCN(C(c2cccnc2)c2nnnn2C2CCCCC2)CC1 (stereo unspecified),-16.0%
O=C(/C=C/c1ccccc1)N1CCC[C@H]1CO,-8.4%
CCOC(=O)C1=C(C)Nc2nc3ccccc3n2C1c1ccncc1 (stereo unspecified),-7.8%
c1ccc(CNc2ccnc(-c3ccc4c(c3)OCO4)n2)cc1,-9.1%
Cc1ccc(S(=O)(=O)Cn2nnnc2C(C(C)C)N2CCc3ccccc3C2)cc1 (stereo unspecified),-29.4%
O=C(CN1C(=O)NC(Cc2ccccc2)C1=O)NC(=O)NC1CCCCC1 (stereo unspecified),-1.7%
O=C1NC(=O)C(CC(=O)N(Cc2cccs2)C2(C(=O)NC3CCCCC3)CCCCC2)N1 (stereo unspecified),1.1%
CC(C)Oc1ccc(C(=O)Nc2ccc(C(F)(F)F)n(C)c2=O)cc1,-24.3%
CC(=O)Nc1ccc(-c2cc(C(=O)O)c3cc4ccccc4cc3n2)cc1,-28.5%
O=C(Nc1ccc(Cl)cc1)N(Cc1nnc2n1CCCCC2)c1ccccc1,-5.3%
CCN(CCNC(=O)Cn1cc2c(n1)CCCC2)c1ccccc1,-7.6%
COc1ccc(C2CC3(CC(C)(C)NC(SC)=N3)Oc3cc(O)cc(C)c32)cc1 (stereo unspecified),-13.0%
CCN1C(=O)CC(N2CCC(Cc3ccccc3)CC2)C1=O (stereo unspecified),-2.0%
CCOC(=O)C1=NNC(C(=O)c2ccc(C)cc2)C1c1ccc(OC)cc1 (stereo unspecified),-8.1%
O=C(NCc1ccc2c(c1)OCO2)c1cccc(N2CCCC2=O)c1,-8.1%
COc1ccc(-c2noc(C3CCCN(C(=O)c4ccccc4OC)C3)n2)cc1OC (stereo unspecified),-16.4%
CN(C)c1nc2c(c(=O)[nH]c(=O)n2C)n1Cc1ccc(F)cc1,-5.4%
Cc1ccc2cc(C(c3nnnn3CC3CCCO3)N3CCc4ccccc4C3)c(=O)[nH]c2c1 (stereo unspecified),?
Cn1ccc(O)c(C#N)c1=O,-6.9%
Cc1ccccc1OCC(=O)Nc1ccccc1N1CCOCC1,-10.0%
CC(C)(C)n1nnnc1C(c1ccncc1)N1CCN(c2ccc(O)cc2)CC1 (stereo unspecified),-3.7%
N#Cc1cccc(NC(=O)N2CCCC3(CCN(C(=O)c4cnccn4)CC3)C2)c1,-0.5%
COc1ccc(OC)c(NC(=O)CSc2nnnn2-c2ccc3c(c2)OCO3)c1,-7.6%
Cc1cc(C)nc(SCc2cc(=O)c(OC(=O)c3cc([N+](=O)[O-])ccc3Cl)co2)n1,?
COc1ccc(/C=C/C(=O)c2ccc(NS(=O)(=O)c3ccc(C)cc3)cc2)cc1O,-19.9%
CN(C)/C=N/c1sc2c(c1C#N)CC(C)(C)NC2(C)C,-6.6%
COc1ccc(Nc2ncnc3sc(-c4ccccc4)cc23)cc1,?
CCOC(=O)c1c(C)[nH]c(C)c1C(=O)CSc1nnc(-c2cc(OC)c(OC)c(OC)c2)o1,-9.6%
CC(C)(C)C(=O)N1CCC(O)(CS(=O)(=O)Cc2ccccc2Cl)CC1,-20.6%
CCC(C)NC(=O)/C(=C/c1ccco1)c1ccccc1 (stereo unspecified),25.1µM*
CN1CCN(NC(=O)C2CC2)CC1,-15.5%
O=C1CCCN1CCC1CCN(C2CC(=O)N(c3ccc(Cl)cc3)C2=O)CC1 (stereo unspecified),-7.0%
CC(C)(C)c1ccc(O)c(N)c1,-16.7%
O=C(NC1CCSC1=O)c1cccc(C(=O)NC2CCSC2=O)c1 (stereo unspecified),-7.1%
CCN(CC)CCNCc1ccc(OCc2ccc(Cl)nc2)c(OC)c1,-2.8%
COP(=O)(OC)C(Nc1ccc(C)cc1)c1ccc([N+](=O)[O-])cc1 (stereo unspecified),-2.6%
Cc1ccc(-c2cnc(NC(=O)CCC(=O)N3CCCCC3)n2C)cc1,-19.6%
C#CCN(C)CCCOc1ccc(Cl)cc1Cl,14.1µM*
Cc1ccc(C(=O)Nc2ccccc2N2CCN(C(=O)C(C)C)CC2)cc1C,?
CCCOC(=O)/C=C/c1c(C)[nH]c(=O)[nH]c1=O,-13.1%
CC(C(=O)Nc1ccccc1Sc1ccccc1)N(c1ccccc1)S(C)(=O)=O (stereo unspecified),-9.2%
CCOC(=O)[C@@H](O)Cc1cnc2ccccc2n1,-0.2%
CSc1cccc(NC(=O)Cn2cccc2)c1,14.1µM*
O=C(c1ccc2ccccc2n1)N1CCN(c2ccccc2O)CC1,-23.2%
O=C(c1ccco1)N1CCN(c2c(-c3ccccc3)c3cc(Cl)ccc3[nH]c2=O)CC1,?
O=C(Cc1cccs1)N/N=C/c1ccc(OCc2ccccc2)cc1,-20.3%
O=C(CO)N/N=C/c1ccccc1F,-14.7%

# Remaining list, next part:
SMILES,HPGD block
Cc1c(NC(=O)c2n[nH]c(=O)c3ccccc23)c(=O)n(-c2ccccc2)n1C,-8.1%
CCCCOC(=O)Nc1ccc(C(C)C)cc1,12.6µM*
Fc1ccc(Oc2cc(N3CCOCC3)nc(-c3ccccc3)n2)c(F)c1,-23.2%
CCNC(=S)N(Cc1ccc(OC)cc1)C1CC(=O)N(c2ccc(OCC)cc2)C1=O (stereo unspecified),-8.3%
COCCOC(=O)C1=C(C)OC(N)=C(C#N)C1c1ccco1 (stereo unspecified),-17.2%
COc1ccc(NC(C)=O)cc1CNC(=O)COc1c(C)c(C)cc(C)c1C,3.5%

# A portion of the library. The share of hits here may be higher or lower than overall.
